# Compound activity: PubChem BioAssay, several laboratories
# CSC inhib = cancer stem cell viability inhibitors, primary screen, luminescence; cancer stem cell-like cells viability; inhibition, % at 7.5 µM; hit rate 1.1% among 300,000; AID 2717, 2010;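 active = mean at 75% or more and at least half the replicates too; tested in HMLE shEcad cells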;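 note: 0% = median of negative and 100% = median of positive control wells; the first replicate is given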
# Rce1 inhib = yeast Rce1p protease inhibitors, primary screen, biochemical, fluorescence, cell-free homogeneous | yeast membranes, quenched prenylated peptide cleavage fluorescence | calls only | hit rate 0.27% among 290,000;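 active = fall in fluorescence gain of 50% or more versus controls, with final raw signal at or below 3038400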;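 note: plate controls were neutral control wells for no effect and wells lacking membranes for full effect; tested at 10 µM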
# Target sequence (Q03530 whole entry, looked up): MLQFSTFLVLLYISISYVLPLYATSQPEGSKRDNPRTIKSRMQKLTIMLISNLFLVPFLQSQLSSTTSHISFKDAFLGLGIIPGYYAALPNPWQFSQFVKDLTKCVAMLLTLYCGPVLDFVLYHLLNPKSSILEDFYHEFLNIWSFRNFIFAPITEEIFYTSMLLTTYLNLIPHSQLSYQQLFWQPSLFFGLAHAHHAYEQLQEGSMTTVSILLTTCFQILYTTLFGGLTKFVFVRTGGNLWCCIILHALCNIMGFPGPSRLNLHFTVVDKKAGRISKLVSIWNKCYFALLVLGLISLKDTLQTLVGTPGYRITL
# PABP polyA inh = PABP poly(A) RNA binding inhibitors, primary screen, biochemical, fluorescence polarization, uHTS. AID 2014, 2009. hit rate 1% among 290,000. inhibition, % at 35 µM;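 active = 50% or more with normal probe brightness, or confirmed in later tests; about a fifth of its hits are not listed in these tables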;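 note: calls also rest on retests at 20 µM and on dose response follow-up; controls were probe without protein and protein plus probe with vehicle; some compounds called inactive have numbers as strong as hits; many hits fall short of the cut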
# Yeast UUG start = modulators of yeast start codon fidelity, primary screen, whole organism, S. cerevisiae, single point, plate reader | activity score, % at 18.7 µM | S. cerevisiae UUG-firefly luciferase reporter, luminescence/redox ratio | hit rate 0.13% among 350,000 | AID 602363, 2012;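 active = replicate mean at a twofold rise or more, about +100% in these data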;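 note: firefly luciferase made from a UUG start codon reports start codon fidelity; reporter light over untreated wells divided by growth signal over untreated wells; some hits fall short of that in this replicate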
# eIF4H FP inh = human eIF4H binding inhibitors, primary screen, translation initiation inhibitor project, biochemical, uHTS, fluorescence polarization. eIF4H fluorescence polarization binding assay. inhibition, % at 35 µM. hit rate 0.94% among 290,000. AID 2012, 2009;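 active = 50% or more with normal probe brightness, or confirmed in later tests; about a fifth of its hits are not listed in these tables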;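 note: calls also rest on retests at 20 µM and on dose response follow-up; 0% = protein and probe with vehicle and 100% = probe without protein; strong numbers were not always called active; many hits fall short of the cut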
# HIV Env fusion = inhibitors of HIV-1 Env-driven cell-cell fusion, primary screen, HeLa-JRFL effector, CEM21 target cells, luciferase; inhibition, % at 12.3 µM; hit rate 1.1% among 360,000;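 active = mean replicate inhibition score of at least 50 and every replicate individually at or above 50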;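 note: 0% = plate neutral controls and 100% = maraviroc near 300 nM; one replicate is shown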
# MT1-MMP act inh = blockers of MT1-MMP proenzyme processing, primary screen, HT1080 RFP-PRO-GFP cells, GFP/RFP fluorescence. GFP/RFP ratio change, % at 20 µM. Matrix metalloproteinase-14 (Homo sapiens), P50281. AID 651647, 2012. GFP/RFP ratio fluorescence, overnight; percent of plate control window, DMSO zero. hit rate 0.061% among 360,000;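 active = GFP/RFP ratio change of at least 30% with cell ATP level not reduced by more than half and red fluorescence within 50% of control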; note: strong numbers were not always called active
#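 Compound: 20 µM single dose, 1% DMSO / System: HT1080 RFP-PRO-GFP cells / Controls: DMSO and RFP-L50D-GFP cell wells / Read-out basis: GFP/RFP fluorescence ratio / Schedule: overnight compound exposure at 37 °C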
# MT1-MMP act inh RFP = further read-out of MT1-MMP act inh, marked with its call; RFP signal change, %; measured here: RFP expression control read;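 0 = vehicle wells; hits needed this value within 50% of zero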
# The depositor's hits bear a star; i = inactive; / = not tested or not shown; & = joins results of further samples; [ ] = another dose, or the depositor's remark. This is a subset (hit frequency here may not be typical).
SMILES,CSC inhib,Rce1 inhib,PABP polyA inh,Yeast UUG start,eIF4H FP inh,HIV Env fusion,MT1-MMP act inh,MT1-MMP act inh RFP
COc1ccccc1C(=O)NC(C)c1ccccc1 (stereo not given),-16,i,3,-11,-2,/,-2,0
CCOC(CCn1c(SCc2ccc([N+](=O)[O-])cc2)nc2ccccc2c1=O)OCC,7,i,-9,/,-10,42,-3,-4
CCOC(=O)C1=C[C@@H](C(C)C)N(S(=O)(=O)c2ccc([N+](=O)[O-])cc2)[C@H]1c1ccccc1,/,/,/,-17,/,51,0,-16
COc1cccc(N2CCN(CC(=O)Nc3ccc(SC(F)F)cc3)CC2)c1,-2,i,9,/,-9,2,-2,0
Clc1cccc(N/N=C/c2ccc(N3CCOCC3)s2)c1,37,i,-3,/,-4,-19,6,2
CCN(CC(=O)Nc1ccc(NC(C)=O)cc1)C(=O)CC1OC(=O)c2ccccc21 (stereo not given),-7,i,/,-2,/,6,-1,0
O=C(O)c1c[nH]ccc1=O,8,i,3,/,-10,19,-1,5
Cc1cc(NC(=O)CSc2nnc3c(C)cc4cc(C)c(C)cc4n23)no1,1,i,-3,-12,-1,/,3,-4
COCCn1c(=S)[nH]c2cc(OC)c(OC)cc2c1=O,-20,i,0,15,7,/,3,-2
CC(NC(=O)c1ccc2c(c1)OCCO2)C(=O)O (stereo not given),-1,i,-7,-5,1,/,2,1
CCOC(=O)CC(=O)CSc1nccc(-c2cccnc2)n1,-10,i,9,-10,-5,12,-10,-3
CS(=O)(=O)N(CC(=O)Nc1cccc([N+](=O)[O-])c1)c1cccc(F)c1,9,i,8,-8,1,8,2,0
COC(=O)c1cc(C(=O)NCc2ccccc2)c(=O)[nH]c1C,21,i,-4,/,-5,4,3,4
Cc1cccc(C)c1NC(=O)CNC(=O)CCC(=O)c1cccs1,-6,i,7,-11,-1,-14,-1,3
O=C(OCC(=O)N1CCCCCC1)c1cc(S(=O)(=O)N2CCOCC2)ccc1F,/,/,/,-12,/,-1,-2,1
CCOC(=O)CSc1nc2c(sc3ccccc32)c(=O)n1CCCN1CCOCC1,11,i,2,42,3,-103,-3,-1
O=C1c2ccccc2CCC12N=NCC2c1ccc(Cl)cc1 (stereo not given),1,i,-5,-15,-13,-56,-3,-2
Cc1nc(N2CCN(C(=O)COc3ccccc3)CC2)c2c(C)c(C)sc2n1,21,i,4,-2,-4,61*,-3,-16
CCOC(=O)c1cc(-c2ccccc2)sc1NC(=O)c1ccc(OC)c(OC)c1,-2,i,-6,-15,-2,-32,-4,0
Cc1cc(OC(=O)c2cccs2)ccc1C(C)C,-7,i,3,/,-2,/,-2,3
O=C(NCC(c1cccs1)N1CCOCC1)c1cccc([N+](=O)[O-])c1 (stereo not given),-2,i,-3,/,6,/,0,4
COc1ccccc1N1CCN(C(=O)c2cc3c(s2)-c2ccccc2OC3)CC1,39,i,-6,-8,-5,7,1,4
CCCCOC(=O)c1[nH]c(C)c(C(=O)OC)c1C,-11,i,-4,-12,5,-84,-3,-3
CCOC(=O)N1CCN(C(=O)CS(=O)Cc2nc(-c3ccc(OC)c(OC)c3)oc2C)CC1 (stereo not given),-7,i,7,-11,-8,-8,-1,-2
C[C@H](CO)N1C[C@H](C)[C@@H](CN(C)S(=O)(=O)c2ccc(Cl)cc2)Oc2ccc(NS(=O)(=O)c3ccccc3)cc2CC1=O,-6,/,/,-2,/,-5,10,-1
CCOc1ccc(S(=O)(=O)NCC2CCCO2)c2cccnc12 (stereo not given),8,i,-3,6,0,/,7,5
NCc1oc(-c2ccccc2)cc1C(=O)O,-6,i,0,/,-7,-2,-3,4
N#CCC(=O)N/N=C/c1cc(-c2ccccc2)n(-c2ccc(Cl)cc2)c1-c1ccccc1,52,i,-2,/,-2,-3,/,/
Cn1c(CCN2CCCCC2)nc2cc(NS(=O)(=O)c3ccc(F)cc3)ccc21,-3,i,1,-11,-7,-44,0,-4
CC(C)=CC(=O)Nc1ccccc1Br,-11,i,-9,/,1,/,1,-2

# Compounds shown so far that have two or more sulfur atoms, in the order listed:
SMILES,CSC inhib,Rce1 inhib,PABP polyA inh,Yeast UUG start,eIF4H FP inh,HIV Env fusion,MT1-MMP act inh,MT1-MMP act inh RFP
CCOC(=O)CSc1nc2c(sc3ccccc32)c(=O)n1CCCN1CCOCC1,11,i,2,42,3,-103,-3,-1
C[C@H](CO)N1C[C@H](C)[C@@H](CN(C)S(=O)(=O)c2ccc(Cl)cc2)Oc2ccc(NS(=O)(=O)c3ccccc3)cc2CC1=O,-6,/,/,-2,/,-5,10,-1

# Further records follow:
SMILES,CSC inhib,Rce1 inhib,PABP polyA inh,Yeast UUG start,eIF4H FP inh,HIV Env fusion,MT1-MMP act inh,MT1-MMP act inh RFP
O=C(Nc1nc(-c2ccc(Cl)cc2)cs1)NC1CCCCC1,29,i,-2,-3,-5,-13,-3,-16
S=C(NCCc1ccccc1)NCc1cccs1,-9,i,14,/,3,-20,3,4
COc1ccc2c(c1)c1c(n2C(C)=O)C(OC(C)=O)=NCC1,-18,i,3,-24,5,/,-8,-8
O=C1CC(C(=O)O)C(c2ccccc2)c2ccccc21 (stereo not given),/,/,/,3,/,-2,-2,6
Nc1ccc(C(=O)Oc2ccc([N+](=O)[O-])cc2)cc1,6,i,12,-10,-4,-6,3,-1
C=C(C)Cn1c(SCC(=O)N/N=C/c2cccc(O)c2)nc2ccccc2c1=O,/,i,0,/,-5,40,8,0
Cc1nnc(SCC(=O)Nc2ncc3c(n2)CCCC3=O)s1,-14,i,-2,-16,-4,/,1,2
CC(=O)c1cccc(NC(=O)c2csc3c2CCCCC3)c1,3,i,22,/,-1,-14,1,-1
COc1ccccc1/C=C/C(=O)NCC(=O)n1nc(C)cc1C,-14,i,2,/,7,5,2,5
COCCNC(=O)CCCN1C(=O)c2ccccc2Sc2ncccc21,-3,i,16,-9,5,-7,2,-1
c1ccc(-c2cc3nc(NCc4ccc5c(c4)OCO5)ccn3n2)cc1,/,/,/,-11,/,-5,4,-2
C=C(C)C1CC=C(C)/C(=N\NC(=O)CCc2ccccc2)C1 (stereo not given),-9,i,0,/,-5,-33,2,2
COc1ccc(Nc2cc(C)nc3ccccc23)cc1,/,i,4,-21,-8,/,7,3
COc1ccc(CN2CCN(Cc3ccon3)CC2CCO)c(C)c1C (stereo not given),-7,i,0,-16,0,-12,4,2
C=CCn1c(SCC(=O)Nc2nnc(CC)s2)nnc1-c1ccco1,/,i,-2,-16,-5,/,1,5
Cc1ccc(NC(=O)c2cccc3c2C(=O)N(C2CCCCC2)C3)c(C)c1,10,i,/,-9,/,/,-2,-3
CCOc1cc(CN2CCN(c3ccc(C(C)=O)cc3)CC2)ccc1OC,-17,i,2,1,-8,/,8,1
CCOc1ccc(OCC)c(S(=O)(=O)N2CCC(C)CC2)c1,-7,i,-6,-15,-2,/,2,0
Cc1cccc(NC(=O)CCNS(=O)(=O)c2cccc3nsnc23)c1C,-3,i,3,-10,-3,-13,0,2
C=CCN1C(=O)/C(=C/c2ccc(OC(C)=O)c(OCC)c2[N+](=O)[O-])SC1=S,/,i,-9,/,12,32,-2,-18
CC1CCCC(C)N1/N=C/c1ccccc1OC(F)F (stereo not given),5,i,-4,-8,-9,-6,0,4
CCOc1cc(/C=N/O)cc(Cl)c1OC,-14,i,-10,-2,-1,/,0,2
CCOC(=O)Nc1ccc2c(c1)N(C(=O)N(CC)CC)c1ccccc1CC2,7,i,4,/,12,/,-12,-9
FC(F)(F)c1ccccc1C1=CC(c2ccccc2)n2ncnc2N1 (stereo not given),7,i,/,-24,/,-1,-3,-2
COc1ccc2oc(C(=O)c3ccccc3)c(NC(=O)CN3CCN(C)CC3)c2c1,11,i,2,-10,-3,/,-3,-12
CCc1cccc2c(C(=O)C(NCCOC)c3ccccc3)c[nH]c12 (stereo not given),7,i,5,-3,-12,21,6,8
O=C(c1ccc(N2C(=O)CCC2=O)cc1)N1CCCSC1=Nc1ccccc1,/,/,/,-10,/,-10,-2,2
CN(C(=O)CSc1nnnn1-c1ccc(O)cc1)C1CCCCC1,0,/,/,-4,/,-5,-4,-3
CCOc1ccccc1OCC(=O)Nc1ccc(S(=O)(=O)N(C)C)cc1,-10,i,-3,-8,-2,-118,-1,0
O=C(Nc1ccccc1)O/N=C/c1ccncc1,0,i,13,-12,8,/,6,5

# 5 structures already listed, sorted by SMILES length, high to low:
SMILES,CSC inhib,Rce1 inhib,PABP polyA inh,Yeast UUG start,eIF4H FP inh,HIV Env fusion,MT1-MMP act inh,MT1-MMP act inh RFP
COc1ccc2oc(C(=O)c3ccccc3)c(NC(=O)CN3CCN(C)CC3)c2c1,11,i,2,-10,-3,/,-3,-12
CCOc1ccccc1OCC(=O)Nc1ccc(S(=O)(=O)N(C)C)cc1,-10,i,-3,-8,-2,-118,-1,0
CN(C(=O)CSc1nnnn1-c1ccc(O)cc1)C1CCCCC1,0,/,/,-4,/,-5,-4,-3
O=C(Nc1ccccc1)O/N=C/c1ccncc1,0,i,13,-12,8,/,6,5
CCOc1cc(/C=N/O)cc(Cl)c1OC,-14,i,-10,-2,-1,/,0,2

# Remaining list, next part.
SMILES,CSC inhib,Rce1 inhib,PABP polyA inh,Yeast UUG start,eIF4H FP inh,HIV Env fusion,MT1-MMP act inh,MT1-MMP act inh RFP
O=C(NC(=S)Nc1nc(-c2ccccc2)cs1)c1cncc(Br)c1,/,i,4,-7,-12,/,7,-6
O=C(CNC(=O)c1ccc(Br)o1)NCc1ccc(Cl)cc1,-4,i,-5,-2,-19,-3,1,0
COC(C[C@@H](O)C[C@@H](O)[C@H](C)OCc1ccccc1)OC,-10,i,/,-9,/,-2,0,3
Cc1ccccc1Nc1nnc(SCC(=O)N(C)C2CCS(=O)(=O)C2)s1 (stereo not given),7,i,15,-10,-1,-26,-1,0
COC(=O)CSc1nc(N2CCOCC2)c2c(c1C#N)CCCC2,-13,/,-6,/,11,6,3,2
COc1ccc(Nc2nc3ccccc3n3cnnc23)cc1Cl,0,i,-15,-15,-3,14,3,0
O=C(Cn1cnc2cc([N+](=O)[O-])ccc2c1=O)N1CCN(S(=O)(=O)c2ccccc2)CC1,-14,/,/,-12,/,11,-2,-3
CN1C(=O)C(C)(C)c2cc(S(=O)(=O)N3CCCCCC3)ccc21,-8,i,-6,-3,-14,11,2,3
CCOC(=O)c1ccccc1NC(=O)Cc1sc(-c2cccnc2)nc1-c1ccc(C)cc1,-21,i,-8,/,1,/,/,/
CCN(CC)C(=O)COc1ccc(/C=N/NC(=O)c2cc(-c3ccccc3OC)nc3ccccc23)cc1OC,1,i,/,/,/,19,1,0
CCNc1nc(NCC)nc(N(C)n2cnnc2)n1,0,i,5,-22,-1,-32,3,7
COc1ccc(/C(C)=N/NC(=O)CNC(=O)c2ccco2)c(OC)c1,-9,i,-4,5,-8,4,0,-1
COCCN(C(=O)Nc1ccc(OC)cc1)c1nc2ccccc2s1,6,i,-2,-13,-4,-8,5,-2
COc1ccc(/C=C/c2ccc3ccccc3[n+]2C)cc1OC,-6,i,3,3,-10,/,-27,-5
CCCN(CCC)C(=O)c1cc2c(=O)n3cccc(C)c3nc2s1,-16,i,-5,1,-12,58*,-2,-5
Cc1ccc(Oc2ccc(C(F)(F)F)cc2[N+](=O)[O-])c([N+](=O)[O-])n1,0,i,6,-11,-6,1,1,-3
COCCOC(=O)c1c(NC(=O)CN2c3ccccc3CC2C)sc(C(N)=O)c1C (stereo not given),-5,i,7,/,-7,26,-3,-1
COC(=O)c1cc(OC)c(OC)cc1NC(=O)c1ccc(OC)cc1,6,i,-7,-23,-9,/,4,4
C[C@H]1CN([C@@H](C)CO)C(=O)Cc2cc(NC(=O)CCC(F)(F)F)ccc2O[C@H]1CN(C)S(C)(=O)=O,/,/,/,11&-3,/,-5[16.7 µM],8,4
